FGF22 binding: binders of recombinant human FGF22 by thermal shift | SYPRO orange fluorescence; percent of sucrose octasulfate shift, DMSO zero | calls only at 9.99 µM | 340,000 compounds, 1.5% hits;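 active means melting point raised past a set limit in the mean and every replicate; three in four hits are not shown here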
Target sequence (Q9HCT0 whole entry, looked up): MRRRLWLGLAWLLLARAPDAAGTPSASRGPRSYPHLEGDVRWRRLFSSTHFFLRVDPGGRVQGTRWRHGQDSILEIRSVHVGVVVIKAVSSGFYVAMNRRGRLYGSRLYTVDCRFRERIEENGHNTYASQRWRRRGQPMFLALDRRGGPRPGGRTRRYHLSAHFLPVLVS
Ecoli growth: E. coli growth inhibition. AID 1053175. 330,000 compounds, 0.21% hits. OD600 absorbance (test concentration not listed). Escherichia coli growth, OD600, 23 h; active compounds read low;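 active means OD600 absorbance below the run mean of sample wells minus 3.6 SD, in any replicate, cut at about 0.56 in these data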;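 further: stock transfer was 300 nL into about 60 µL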
MLL AF4-AF9 inh: inhibitors of human MLL-AF4/AF9 interaction; P42568; AlphaScreen, biotin-AF4 peptide binding to FLAG-AF9; inhibition, % at 10 µM; 350,000 compounds, 0.47% hits;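 active means every replicate reaching a set inhibition limit, whatever the replicate mean, cut at about 25% in these data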;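 further: 0% = plate neutral control median and 100% = total signal loss; the record names both 10 and 1 µM as test concentration; the first replicate is given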
Vif TR-FRET: HIV-1 Vif–A3G interaction blockers – biochemical, TR-FRET, GST-Vif 1-94, biotin-A3G peptide, dose response retest, primary screen (AID 1117319). TR-FRET GST-Vif / biotin-A3G peptide binding; higher % means a stronger effect; test concentration not given here; strong numbers were not always called active. inhibition, %, or IC50 in µM where a hit was titrated. 260,000 compounds, 0.57% hits;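 active means above the screen mean plus three standard deviations and confirmed in dose response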;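 further: Vif residues 1-94 fused to GST binding biotinylated APOBEC3G peptide 110-148; 0% = full assay without inhibitor and 100% = GST in place of GST-Vif; retest series ran down from 100 µM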
HNF4A DNA FP: change in binding of human HNF4 alpha to DNA | AID 1224865 | P41235 | activity change, % at 10 µM | 360,000 compounds, 0.3% hits | HNF4a-FITC DNA binding, fluorescence polarization, 1 h; in the data active means activity change above about 30%, passing the limit was not always enough;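 further: controls were the assay level and a saturating level of protein; the project sought stronger binding though the title names inhibitors; some compounds called inactive have numbers as strong as hits; positive values seem to mean higher polarization but the record does not say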
Target sequence (P41235 whole entry, looked up): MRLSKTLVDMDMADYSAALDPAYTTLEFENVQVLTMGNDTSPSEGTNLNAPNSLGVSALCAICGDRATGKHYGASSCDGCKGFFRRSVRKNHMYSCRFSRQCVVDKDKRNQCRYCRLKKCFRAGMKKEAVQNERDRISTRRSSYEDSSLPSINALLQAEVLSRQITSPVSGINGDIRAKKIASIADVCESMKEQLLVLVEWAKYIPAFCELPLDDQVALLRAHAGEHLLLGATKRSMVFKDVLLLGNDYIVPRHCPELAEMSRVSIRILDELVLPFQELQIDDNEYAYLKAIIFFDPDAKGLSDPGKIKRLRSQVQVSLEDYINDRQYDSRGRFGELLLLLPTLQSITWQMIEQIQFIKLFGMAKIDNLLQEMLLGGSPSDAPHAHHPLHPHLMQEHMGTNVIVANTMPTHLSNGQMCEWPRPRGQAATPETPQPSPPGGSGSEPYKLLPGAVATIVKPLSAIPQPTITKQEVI
ALR inh: blocks human ALR sulfhydryl oxidase activity; P55789; purified ALR, DTT oxidation, H2O2 HRP-luminol luminescence; inhibition, % (no concentration beside the values); 290,000 compounds, 3.8% hits;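 active means mean and each replicate at 75% or more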;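 further: stock transfer was 7.5 nL into about 7.5 µL; 0% = neutral wells and 100% = wells with inactivated enzyme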
Target sequence (P55789 whole entry, looked up): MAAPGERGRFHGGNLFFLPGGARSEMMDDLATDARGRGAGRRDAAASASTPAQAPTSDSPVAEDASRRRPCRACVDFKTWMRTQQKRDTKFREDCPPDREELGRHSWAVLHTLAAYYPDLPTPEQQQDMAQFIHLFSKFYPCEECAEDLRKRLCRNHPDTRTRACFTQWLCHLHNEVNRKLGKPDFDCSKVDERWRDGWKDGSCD
rRNA inh HTS: inhibits bacterial ribosomal RNA function over humanized ribosomes | E. coli WT GFP vs humanized-ribosome RFP mutants, fluorescence, 24 h; active compounds read low; DMSO median 0, no signal -100 | 350,000 compounds, 1.6% hits | GFP signal change (wild-type ribosome), % (test concentration not listed);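 active means significant combined selectivity score with lowered wild-type GFP, culture density cut under 30%, mutant RFP and density less affected; inactive means any of these conditions unmet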; further: one replicate is shown; some compounds called inactive have numbers as strong as hits
rRNA inh HTS OD600: second read-out of rRNA inh HTS, no call of its own (marks repeat the call); OD600 change, %; measured here: OD600 growth;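 optical density of the mix in the first replicate; 0 = DMSO median and -100 = no signal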
rRNA inh HTS RFP: also measured in rRNA inh HTS; calls as there; RFP signal change, %; measured here: RFP humanized mutant strains;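 first replicate; 0 = DMSO median and -100 = no signal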
Starred values were filed as active, the others as inactive; i = inactive; / = not tested or not shown; & = joins results of further samples.

Values run as follows: FGF22 binding	Ecoli growth	MLL AF4-AF9 inh	Vif TR-FRET	HNF4A DNA FP	ALR inh	rRNA inh HTS	rRNA inh HTS OD600	rRNA inh HTS RFP
(1) COc1ccc(NC(=O)Nc2ccc3c(c2)CC(=O)N([C@H](C)CO)C[C@H](C)[C@@H](CN(C)Cc2ccc(-c4ccccc4)cc2)O3)cc1
→ i	/	-0.3	/	/	/	0	3	2.8
(2) O=C(NCCCc1ccccc1)c1cc(COc2c(F)cccc2F)on1
→ i	0.64	-1.3	/	0.8	-12	-31	-31	-3.5
(3) CCOC(=O)c1cc(NC(=O)c2ccco2)ccc1N1CCOCC1
→ i	0.7	-0.1	/	2.0	-15	-3	11	-0.7
(4) COc1cc2c(cc1OC)CN(C(=O)CN1CCN(S(=O)(=O)c3ccccc3)CC1)CC2
→ i	0.67	-8.3	6%	0.5	-2	-3	-10	0.9
(5) CCOc1ccc(CCNC(=O)CN2C(=O)CCSc3ccccc32)cc1
→ i	0.69	1.1	-5%	-1.6	6	-20*	3.4*	3.0*
(6) O=c1[nH]c(CSc2ncnc3sccc23)nc2cc(C(F)(F)F)ccc12
→ i	0.68	-1.6	/	4.5	-1	7	2	2.6
(7) CC1CC(C)CN(CC(=O)Nc2cc(S(=O)(=O)N3CCOCC3)ccc2N2CCCC2)C1 (centres undefined)
→ i	0.69	6.1	/	-2.4	2	6	-2	3.3
(8) COc1ccc(C2CC(c3ccccc3)=NN2C(=O)CSc2nccc(=O)[nH]2)cc1 (centres undefined)
→ i	0.65	13	12%	2.2	-3	5	8	-1.0
(9) CC1(C(=O)NC2CCCC2)CCC(=O)N1CCOc1ccccc1 (centres undefined)
→ i	/	-1.7	/	3.4	/	-3	3	-5.0
(10) CCOC(=O)c1ccc(NC(=O)CS(=O)(=O)c2cn(CC)c3ccccc23)cc1
→ /	0.63	/	-4%	0.2	1	/	/	/
(11) CCC(=O)N1CC2(CCN(Cc3ccc(F)cc3)CC2)c2c(n(C)c3cc(OC)ccc23)[C@@H]1CO
→ i	/	1.6	/	/	/	-4	-7	-3.3
(12) CCCOc1ccc(CSC2=NCCN2)cc1[N+](=O)[O-]
→ /	0.73	/	-4%	0.9	99*	/	/	/
(13) O=C(C[C@H]1C[C@@H]2c3cc(NC(=O)c4ccc5c(c4)OCO5)ccc3O[C@@H]2[C@H](CO)O1)NCC1CC1
→ i	/	-2.1	/	/	/	-1	-1	-2.4
(14) COc1ccc(C)cc1NC(=O)C1CC(=O)OC12CCCCC2 (centres undefined)
→ /	0.7	/	81%	-1.6	-7	9	2	1.8
(15) COc1ccc(C(=O)NNC(=O)C2CCCN(C3CC(=O)N(c4ccccc4)C3=O)C2)cc1 (centres undefined)
→ i	0.68	-3.1	-3%	3.2	-3	8	-9	-0.7
(16) O=C(NCc1ccccc1)C(c1ccc(-c2ccccc2)cc1)N1CCN(CCN2CCOCC2)CC1 (centres undefined)
→ i	/	0.8	/	2.5	/	-6	-17	5.7
(17) CC1Cc2nc(SCC(=O)NCc3ccccc3)n(Cc3ccccc3)c(=O)c2S1 (centres undefined)
→ i	0.64	4.9	-6%	0.4	-2	-8	-40	-15
(18) Cc1noc(C)c1S(=O)(=O)Nc1ccc2c(c1)C(=O)N([C@H](C)CO)C[C@H](C)[C@@H](CN(C)C(=O)Nc1ccc3c(c1)OCO3)OCCCC[C@@H](C)O2
→ i	/	-1.1	/	/	/	2	9	-2.4
(19) CCN(CC)CCNC(=O)CS(=O)Cc1nc(-c2ccc(C)cc2)oc1C (centres undefined)
→ /	0.7	/	26%	-0.6	99*	/	/	/
(20) Cc1c(CCO)c(=O)[nH]n1S(=O)(=O)c1ccc([N+](=O)[O-])cc1
→ i	0.7	2.6	/	4.0	-24	-4	12	-1.5
(21) c1cncc(Nc2nc(-c3cccnc3)cs2)c1
→ /	0.63	/	0%	2.2	57	/	/	/
(22) CCCNC(=O)C[C@H]1CC[C@H]2[C@@H](COC[C@@H](O)CN2Cc2ccccc2F)O1
→ i	/	-3.9	/	/	/	-4	10	-3.4
(23) COc1ccc(OCC(=O)NNC(=O)c2ccccn2)cc1
→ /	0.68	/	-3%	-1.8	1	/	/	/
(24) CCOC(=O)c1c(N)sc(C(=O)OCCOC)c1C
→ i	0.67	-4.5	/	0.2	-4	-7	-12	-1.1
(25) CO[C@@H]1CN(C)C(=O)c2ccc(NC(C)=O)cc2OC[C@H](C)N(CC2CCCCC2)C[C@@H]1C
→ i	/	1.0	/	/	/	3	9	-2.7
(26) CCS(=O)(=O)N1CC2(C1)[C@@H](c1ccccc1)[C@@H](CO)N2Cc1ccc(F)cc1
→ i	/	-0.8	/	/	/	-7	-4	1.5
(27) O=C(CSc1ncn[nH]1)N1CCN(S(=O)(=O)c2ccccc2)CC1
→ /	0.72	/	1%	-0.6	-3	/	/	/
(28) CC1(C)Cc2nc3sc4c(SCC(=O)NC(c5ccccc5)c5ccccc5)ncnc4c3cc2CO1
→ /	0.76	/	-5%	2.9	-1	/	/	/
(29) O=C(Nc1ccc(Cl)cc1)c1nc[nH]c1C(=O)Nc1ccccc1F
→ i	/	-0.2	-8%	-1.3	/	7	16	1.0
(30) CCCc1cc(C(=O)OCC(=O)N(CCC)c2c(N)n(Cc3ccccc3)c(=O)[nH]c2=O)sc1C
→ i	0.7	8.9	6%	-1.8	-5	5	13	0.6

Printed as active in ALR inh (from the list above):
| cpd | structure | FGF22 binding | MLL AF4-AF9 inh | Vif TR-FRET | HNF4A DNA FP | ALR inh | rRNA inh HTS | rRNA inh HTS OD600 | rRNA inh HTS RFP |
| --- | --- | --- | --- | --- | --- | --- | --- | --- | --- |
| 12 | CCCOc1ccc(CSC2=NCCN2)cc1[N+](=O)[O-] | / | / | -4% | 0.9 | 99* | / | / | / |
| 19 | CCN(CC)CCNC(=O)CS(=O)Cc1nc(-c2ccc(C)cc2)oc1C (centres undefined) | / | / | 26% | -0.6 | 99* | / | / | / |

Following part:
Values run as follows: FGF22 binding	Ecoli growth	MLL AF4-AF9 inh	Vif TR-FRET	HNF4A DNA FP	ALR inh	rRNA inh HTS	rRNA inh HTS OD600	rRNA inh HTS RFP
(31) C[C@@H]1CN([C@H](C)CO)C(=O)c2cc(C#CC3CCCCC3)cnc2O[C@H]1CN(C)S(=O)(=O)c1ccccc1
→ i	/	0.4	/	/	/	-4	-5	-0.3
(32) Cc1nnc(N(Cc2ccccc2)C(=O)c2cnccn2)s1
→ /	0.69	/	9%	-3.1	-5	/	/	/
(33) N=C1SCC(=O)N1c1ncc(Cc2ccc(F)cc2)s1
→ i	0.66	1.7	-10%	-0.6	-6	-47*	-23*	-6.5*
(34) Nn1c(SCC(=O)N2CCCCC2)nnc1-c1ccncc1
→ /	0.71	/	4%	-1.8	/	/	/	/
(35) COc1ccc(CCN(C)C(=O)c2cc(S(=O)(=O)N3CCCCCC3)ccc2OC)cc1OC
→ i	0.63	-15	3%	-2.9	4	0	3	0.0
(36) Cc1cccc(COC[C@H](Cc2ccccc2)N2CCN(C(=O)c3cccc(C)c3)CCC2=O)c1
→ i	/	-6.9	/	-0.6	/	-39	-68	0.6
(37) C[C@@H]1CCCCO[C@H](CN(C)CC2CCCCC2)[C@H](C)CN([C@H](C)CO)C(=O)c2cc(NS(=O)(=O)c3ccccc3)ccc2O1
→ i	/	5.7	/	/	/	1	-1	-0.2
(38) Cn1c(CCCOc2ccc(Cl)cc2Cl)nnc1SCC(=O)Nc1cccc(F)c1
→ /	0.72	/	11%	-7.1	-6	/	/	/
(39) CCCC(=O)Nc1nnc(SCC(=O)Nc2ccc(OCC)cc2)s1
→ i	/	-11	11%	-4.0	/	4	7	-2.3
(40) COc1ccc2c3c([nH]c2c1)[C@H](CO)N(C(=O)C1CCOCC1)CC31CCN(C(=O)NC(C)C)CC1
→ i	/	0.2	/	/	/	2	7	-3.0
(41) O=C(NC1CCCC1)C(c1ccncc1)N(C(=O)c1csnn1)c1ccc(F)c(Cl)c1 (centres undefined)
→ i	0.71	0.0	/	0.0	/	-1	2	2.8
(42) Cn1c(=O)[nH]c(=O)c2c1nc(OC(=O)c1ccccc1)n2CC(O)COc1ccc(F)cc1 (centres undefined)
→ /	0.73	/	4%&7%	1.1	/	/	/	/
(43) O=C(/C=C/c1cccs1)c1cc(Cl)ccc1O
→ i	0.7	4.7	-8%	-2.5	-2	-26	-23	-1.4
(44) COc1ccc(C2CC(c3ccccc3)=NN2S(=O)(=O)c2ccccc2)c(OC)c1 (centres undefined)
→ i	0.72	-13	2%	0.6	-9	5	-2	-1.2
(45) N#Cc1cccc(-c2ccc([C@H]3[C@H]4CN(S(=O)(=O)c5ccccc5)CCCCN4[C@H]3CO)cc2)c1
→ i	/	-4.2	/	/	/	-5	-10	1.2
(46) COc1cccc(-c2nnc(SCC(=O)N(C(C)C)C(C)C)o2)c1
→ /	0.74	/	22%	3.1	-1	/	/	/
(47) CCS(=O)(=O)Nc1ccc2c(c1)C(=O)N(C)C[C@H](OC)[C@@H](C)CN(CC1CCCCC1)[C@@H](C)CO2
→ i	/	3.2	/	/	/	-1	-10	-0.6
(48) COC(=O)c1cc2ccsc2n1CC(=O)Nc1cc(C)cc(C)c1
→ /	0.69	/	-4%	-0.2	-4	/	/	/
(49) O=C1CCCc2c1nc(-c1ccccc1)n2O
→ i	0.73	0.8	29%	-0.9	-24	0	5	-0.1
(50) Cc1ccc(C(=O)Oc2ccc([N+](=O)[O-])cc2)cc1S(=O)(=O)N1CCCCCC1
→ /	0.66	/	-1%	-3.5	16	/	/	/
(51) CCCCNC(=O)NC1CCCC1
→ i	0.68	0.8	-8%	4.7	1	26	5	1.8
(52) CCOC(=O)c1c(NC(=O)c2ccco2)sc(C(=O)N2CCCC2)c1C
→ /	0.7	/	21%	-0.3	-12	/	/	/
(53) CC(=O)c1coc2c1cc(O)c1ccccc12
→ /	0.73	/	14%	-2.9	-36	/	/	/
(54) O=[N+]([O-])c1cccc(/C=N/Nc2cc(N3CCOCC3)ncn2)c1
→ i	/	3.1	5%	5.0	-6	5	10	0.6
(55) CC(=O)N1CCc2cc(S(=O)(=O)CCC(=O)NCc3ccc(F)cc3)ccc21
→ i	0.65	-1.1	-3%	-1.9	-9	3	0	-2.6

Full records, quoted from the list.
O=C(NC1CCCC1)C(c1ccncc1)N(C(=O)c1csnn1)c1ccc(F)c(Cl)c1 (centres undefined) as listed: FGF22 binding: i; Ecoli growth: 0.71; MLL AF4-AF9 inh: 0.0; Vif TR-FRET: /; HNF4A DNA FP: 0.0; ALR inh: /; rRNA inh HTS: -1; rRNA inh HTS OD600: 2; rRNA inh HTS RFP: 2.8
Cc1nnc(N(Cc2ccccc2)C(=O)c2cnccn2)s1 as listed: FGF22 binding: /; Ecoli growth: 0.69; MLL AF4-AF9 inh: /; Vif TR-FRET: 9%; HNF4A DNA FP: -3.1; ALR inh: -5; rRNA inh HTS: /; rRNA inh HTS OD600: /; rRNA inh HTS RFP: /
N=C1SCC(=O)N1c1ncc(Cc2ccc(F)cc2)s1 as listed: FGF22 binding: i; Ecoli growth: 0.66; MLL AF4-AF9 inh: 1.7; Vif TR-FRET: -10%; HNF4A DNA FP: -0.6; ALR inh: -6; rRNA inh HTS: -47*; rRNA inh HTS OD600: -23*; rRNA inh HTS RFP: -6.5*

Values in list order from the list.
HNF4A DNA FP, nos. 15 to 23, in order: 3.2, 2.5, 0.4, /, -0.6, 4.0, 2.2, /, -1.8

Not all compounds are listed; rates above refer to the full screens.
